Rango complex inh – prevents formation of the Rango-importin beta complex; Potency, µM (titrated, usually from 92.2 µM), for inactives: at the top dose inhibition of complex formation; Rango CFP/YFP FRET sensor + importin beta, 45 min; Q14974; 0.031% of 340,000 active; AID 540263; active = rising FRET ratio curve, often small or poorly fitted; inconclusive = mostly compound fluorescence or quenching in the first reads; inactive = flat curves in all reads;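 also: potency is read from the fitted curve at half-maximal effect; 0% = DMSO wells and 100% = buffer wells lacking importin beta; nearly all actives have a fitted effect of over 15% in size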
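FRET biosensor (snurportin 1 IBB flanked by EYFP and cerulean), 50 nM, with compound 5 min, then 0.125 microM importin beta in PBS, 1 mM DTT, 0.02% Tween-20, 0.1% BSA. CFP/YFP ratio read after 45 min at room temperature; pre-read flags interference.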
miR-21 reporter – raises the signal of a miR-21 reporter; AID 2288; 340,000 tested, under 10 active; HeLa miR-21 FLuc reporter, luciferase, 48 h; Potency, µM (highest dose often 38.3 µM), inactives show at the top dose reporter change, positive = more light; active = well fitted rising curve with a large enough effect; inconclusive = small, poorly fitted or top-dose-only effect; inactive = no such curve, though single readings can be large or run the other way;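 also: % of control where 0% means no effect; miR-21 action dims this reporter so a rising signal means less miR-21 action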
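Luminescence from a firefly luciferase reporter carrying a miR-21 binding site downstream, stably expressed under a CMV promoter in HeLa cells that make miR-21 endogenously, reports miRNA modulation after 48 h compound exposure up to approximately 40uM final.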
GLA inh pH 4.5 – alpha-galactosidase A (human) inhibition, pH 4.5 | P06280 | purified enzyme, 4-MU-alpha-Gal fluorescence, pH 4.5 | activity change, negative = inhibition, % at 105 µM | 230,000 tested, under 10 active; inconclusive = small, poorly fitted or top-dose-only inhibition, or a rising curve; inactive = flat fitted curve, though single readings scatter; no compound was filed as active;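 also: 0% = full activity with enzyme and -100% = basal without enzyme; dose as in the result columns while the protocol names 77 µM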
Target sequence (P06280 whole entry, looked up): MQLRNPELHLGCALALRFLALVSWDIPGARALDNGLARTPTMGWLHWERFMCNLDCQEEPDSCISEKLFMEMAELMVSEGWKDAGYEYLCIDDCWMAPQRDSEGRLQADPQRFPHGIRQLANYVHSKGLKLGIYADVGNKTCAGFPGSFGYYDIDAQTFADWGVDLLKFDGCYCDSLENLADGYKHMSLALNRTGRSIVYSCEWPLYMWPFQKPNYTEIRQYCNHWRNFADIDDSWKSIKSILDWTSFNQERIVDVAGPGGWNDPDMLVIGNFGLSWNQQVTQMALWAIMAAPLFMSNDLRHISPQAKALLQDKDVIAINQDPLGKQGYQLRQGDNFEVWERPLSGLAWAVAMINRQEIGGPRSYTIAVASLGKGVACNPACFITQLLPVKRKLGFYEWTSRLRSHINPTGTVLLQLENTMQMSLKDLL
Rango release inh – prevents RanGTP from dissociating the Rango-importin beta complex; O95149+P62826; Biochemical FRET Rango-importin beta, RanGTP-induced dissociation; Potency, µM (highest dose often 46.1 µM), for inactives: at the highest dose activity change, negative = inhibition; 0.071% of 340,000 active; active means falling FRET ratio curve, often poorly fitted, with flat reads before Ran was added; inconclusive means other falling curves, or compound fluorescence or quenching; inactive means flat or rising ratio curve;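 also: potency is read from the fitted curve at half-maximal effect; % of control where 0% means no effect; nearly all actives have a fitted effect of over 45% in size; -100% = wells without RanGTP and RCC1; the record marks most hits as doubtful in a second field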
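Quantitative HTS using a FRET biosensor: 0.1 uM Rango, 0.25 uM importin beta, 0.6 uM Ran, 2 mM GTP, 0.2 uM RCC1 final, PBS with DTT, Tween-20 and BSA. Post-read taken 45 min after Ran addition.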
* = called active by the depositor; u = inconclusive; x = no result given; & = joins results of further samples. Only part of the results is shown; the hit share may differ from the screen's.

Every second line gives: Rango complex inh	miR-21 reporter	GLA inh pH 4.5	Rango release inh
- Cc1cccc(-c2noc(CN(C)C(=O)COc3ccccc3)n2)c1
 : -0.2%	-2%	x	1%
- Fc1cccc(-c2cc3nc(-c4ccccc4)cc(N4CCC5(CC4)OCCO5)n3n2)c1
 : u	0%	3	u
- Cc1c(NC(=O)C(C)N2CC(C)OC(C)C2)c(=O)n(-c2ccccc2)n1C (stereo not given)
 : -3.2%	-4%	-1	0%
- CC1=CC(=NOC(=O)/C=C/c2ccccc2)C=C(C)C1=O
 : 2.0%	-21%	6	1%
- C=CCn1c(=NC(=O)c2ccc(S(=O)(=O)N3CCc4ccccc4C3)cc2)sc2cc(S(N)(=O)=O)ccc21
 : -0.1%	-3%	-2	-12%
- O=C(NC(=S)N1CCN(Cc2ccccc2)CC1)c1ccccc1
 : 0.6%	-8%	-6	-8%
- O=C(NCCN1CCOCC1)c1ccc(CS(=O)c2ccccc2Cl)o1 (stereo not given)
 : -1.1%	0%	x	-9%
- Cc1ccc(C2=NN(Cc3nnc(-c4ccccc4)o3)C(=O)SC2)cc1
 : -3.7%	-4%	-11	-13%
- COCCCC1CCN(C(=O)C2CCC(=O)N(CCc3ccccc3)C2)CC1 (stereo not given)
 : 0.7%	-36%	x	8%
- COc1ccccc1NC(=O)C(=N\O)/C(C)=N/O
 : 5.5%	0%	-6	16%
- CSCCC(NC(=O)c1ccccc1Cl)C(=O)Nc1ccncc1 (stereo not given)
 : -1.5%	x	x	-2%
- COC(=O)[C@H](CCSC)NC(=O)Cn1ccc(NC(=O)OCc2ccccc2)nc1=O
 : -1.9%	x	x	10%
- Cc1ccc(C(=O)NC2CC(C)(C)NC(C)(C)C2)cc1S(=O)(=O)N1CCCCC1
 : -1.5%	x	x	35%
- Cc1cccc(C2=NN(c3ccccc3)[C@H](CO)[C@H]2c2ccc(F)cc2)c1
 : u	x	u	u
- COc1ccc(/C=C/C(=O)OCC(=O)c2ccc3c(c2)NC(=O)CO3)cc1
 : 1.2%	-1%	6	-6%
- CC(C)Cn1c(CN2C(=O)c3ccccc3C2=O)nc2ccccc2c1=O
 : 5.1%	4%	2	-13%
- CC(=O)c1ccc(NC(=O)C2(c3ccccc3)CC2(Cl)Cl)cc1 (stereo not given)
 : -1.6%	-42%	-19	-4%
- Cc1cc(C)c(C)c(S(=O)(=O)NCCCn2ccnc2)c1C
 : -3.1%	4%	x	-10%
- COc1ccccc1-n1c(-c2ccc(F)cc2)coc1=O
 : -0.3%	3%	x	2%
- NC(=O)SCC(=O)Nc1ccc(Cl)c(Cl)c1
 : -3.7%	9%	0	-5%
- S=c1[nH]nc(-c2ccccc2)n1/N=C/C=C/c1ccco1
 : 9.2%	-8%	-5	-5%
- CN1CCN(/C=N/c2c(C#N)cnn2Cc2ccccc2)CC1
 : -2.5%	0%	-3	1%
- COc1ccc(OC)c(/C=C2\SC(=S)N(N3CCOCC3)C2=O)c1
 : 5.8%	1%	-3	-9%
- O=C(CSc1ccc(-c2nc3ccccc3[nH]2)cn1)Nc1ccc2c(c1)OCCO2
 : -3.3%	-17%	10	-6%
- O=C(CSc1nnc(CCc2ccccc2)n1-c1ccc(Cl)cc1)c1ccccc1
 : 0.5%	-3%	-1	6%
- CCN(CC)CCn1c(=S)[nH]c2ccc(Cl)cc2c1=O
 : -0.8%	-8%	0	15%
- COc1ccc(OC)c(-c2cc(C(=O)N/N=C(\C)c3cccnc3)c3ccccc3n2)c1
 : -0.7%	1%	x	0%
- COc1cccc(CNC(=O)CSc2nnc3c(n2)[nH]c2ccccc23)c1
 : -0.7%	10%	x	10%
- c1ccc2oc(Cc3ccc(Cc4nc5ccccc5o4)cc3)nc2c1
 : -2.0%	11%	3	2%
- O=[N+]([O-])c1ccc(OCC(O)CNC2CCCC2)cc1 (stereo not given)
 : -0.7%	7%	-4	-3%
- CC(C)(O)c1ccccc1CC[C@@H](SCC1(CC(=O)O)CC1)c1cccc(/C=C/c2ccc3ccc(Cl)cc3n2)c1
 : -0.6%	x	x	-10%
- O=[N+]([O-])c1cc(Br)c(O)c(/C=N/Nc2nc3ccccc3s2)c1
 : -1.0%	1%	2	9%
- CCn1cc(C(=O)O)c(=O)c2cnc(N3CCN(C(=S)NC(=O)c4ccc(Br)cc4)CC3)nc21
 : 3.5%	-2%	3	5%
- COc1ccc(C(=O)N/N=C/c2ccc(OC)c(OS(=O)(=O)c3ccccc3)c2)cc1
 : 5.5%	1%	-18	22%
- Cc1ccc2c(c1)-c1cc(C)ccc1C2=O
 : -3.3%	x	x	-6%
- O=C(COC(=O)COc1ccc(Cl)cc1)NC1CCCCCC1
 : -2.1%	x	x	0%
- Cc1onc(-c2c(F)cccc2Cl)c1C(=O)ONC(=O)c1ccco1
 : u	-2%	-16	-9%
- COc1cc(NC(=O)C2=C(C)OCCS2)c(Cl)cc1C(=O)NCCN1CCN(C)CC1
 : -1.1%	-7%	x	-4%
- Cc1ccc2c(CSc3nnc4ccccn34)cc(=O)oc2c1C
 : 5.1%	-69%	-12	9%
- CCOC(=O)Cn1c(CCC(=O)O)ccc1-c1ccc(F)cc1
 : u	-5%	3	-19%
- CC(C)(C)Nc1c(-c2ccc(O)cc2)nc2ccc(Cl)cn12
 : 0.8%	6%	-2	-8%
- CSc1nc2ccccc2n1CC(=O)Nc1cc(C(F)(F)F)ccc1N1CCOCC1
 : -0.1%	0%	-2	8%
- Cc1cc(C(=O)c2cnc(/N=C/N(C)C)s2)cc(C)c1O
 : u	-21%	-10	-8%
- CCC(C)(C)NC(=O)C(c1ccc(C)cc1)N(Cc1ccco1)C(=O)Cn1nnc2ccccc21 (stereo not given)
 : 2.7%	-7%	5	3%
- CCOC(=O)c1cnc2c(c(C)nn2CC)c1NCCN1CCOCC1
 : 4.6%	-18%	-1	1%
- COc1ccc(N2C(=O)CCC(C(=O)N3CCCCCC3)C2c2ccc(OC)c(OC)c2)cc1 (stereo not given)
 : -0.2%	-5%	-2	16%
- C/C(=N\NC(=O)c1ccc(Br)cc1)c1cccnc1
 : 0.1%	-19%	x	0%
- C/C(=N\NC(=O)CC1N=C(Cc2ccccc2)NNC1=O)c1ccccc1 (stereo not given)
 : 0.3%	0%	-8	-3%
- CCN1CCCC1CNS(=O)(=O)c1ccc(Cl)c(C(F)(F)F)c1 (stereo not given)
 : 1.4%	-6%	-4	-3%
- O=C(Nc1ccc(N2CCOCC2)cc1)C1CCN(S(=O)(=O)Cc2ccccc2)CC1
 : -1.9%	-5%	-4	-15%
- CCCn1c2ccccc2c2cnn(CC(=O)NCCCN3C(C)CCCC3C)c(=O)c21 (stereo not given)
 : 11%	-6%	x	22%
- O=c1sc2ccccc2n1CCCOc1ccccc1
 : -0.2%	-64%	5	17%
- Cn1ccnc1C(O)c1ccc(OCc2ccccc2)cc1 (stereo not given)
 : -2.3%	-33%	4	-3%
- Cc1cccc(C)c1NC(=O)COC(=O)COc1ccc2c(C)cc(=O)oc2c1
 : 0.8%	1%	5	28%
- CSCc1nnc(NC(=O)c2ccc(S(=O)(=O)N3CCCCC3C)cc2)o1 (stereo not given)
 : -4.4%	17%	x	-1%
- Cn1c2c(c3ccccc31)CC/C2=N\O
 : u	-16%	-4	-9%
- O=C(O)CCS(=O)(=O)c1cc(Br)cc2c1N(C(=O)C1CC1)CC2
 : 4.0%	-1%	4	-2%
- CCn1c(C)cc(C(=O)COC(=O)c2cccnc2SC)c1C
 : 0.2%	x	x	-2%
- CCCCn1nnnc1SCC(=O)Nc1cccc(C)n1
 : -1.4%	0%	-2	-8%
- CCN(CC)CCCNC(=O)c1csc(Nc2cccc3ccccc23)n1
 : -0.1%	12%	x	-3%

New compounds follow:
Every second line gives: Rango complex inh	miR-21 reporter	GLA inh pH 4.5	Rango release inh
- CCNC(=S)N(Cc1cc2cc(C)ccc2[nH]c1=O)C1CCCC1
 : 2.9%	7%	-3	1%
- COc1ccc(Cl)cc1CN1C(=O)NC2(CCCCCC2)C1=O
 : 2.2%	-1%	x	10%
- Cc1cc(C)cc(NC(=O)c2c(C)nc3ccccn23)c1
 : 2.0%	-24%	-12	-9%
- COC(=O)c1sc2nc(N)c(C#N)cc2c1N
 : u	-64%	-8	u
- CCCc1cc(C(=O)Nc2cccc(C(C)=O)c2)no1
 : 1.0%	-17%	9	5%
- CC(CCc1ccc(O)cc1)NCc1ccc(Br)cc1 (stereo not given)
 : -6.4%	7%	x	5%
- NCCCS(=O)(=O)O
 : -3.0%&-0.5%	-1%	-2&1&0	3%&-4%
- Cc1sc2nc(SCC(N)=O)n(C)c(=O)c2c1C
 : 0.8%	-5%	1	-4%
- CCCCN(C)CCN1C(=O)C2C(C(=O)Nc3cccc(OC)c3)C3C=CC2(O3)C1C(=O)NC1CCCCC1C (stereo not given)
 : 0.9%	2%	x	14%
- O=C1Nc2ccccc2C1=Nc1cccc(Cl)c1
 : -2.7%	-1%	x	24%
- CCSC1(SCC)N=C(N)C2(C#N)C(c3ccccc3)NC(C)=CC12C#N (stereo not given)
 : u	-6%	-4	-15%
- CCOCC(=O)Nc1ccc(S(=O)(=O)N2CCOCC2)cc1
 : -1.2%	0%	4	1%
- Cc1ccc(SCCNC(=S)Nc2ccccc2)cc1
 : 0.0%	1%	5	10%
- COC(=O)Cn1cc(C(=O)C(C)(C)C)c2ccccc21
 : -1.7%	0%	1	15%
- O=C(O)c1ccc(S(=O)(=O)c2ccc3c(c2)C(=O)N(c2ccccc2[N+](=O)[O-])C3=O)cc1
 : 3.2%	-1%	x	2%
- COc1ccc(C(=O)Nc2cccc(C(=O)NCc3ccccc3)c2)cc1
 : -0.6%	-3%	4	0%
- CCn1nc(C(=O)NNC(=O)c2cc(Cl)ccc2OC)c2ccccc2c1=O
 : 2.6%	x	x	-8%
- O=C(c1ccc(=O)n(Cc2ccc(Cl)c(Cl)c2)c1)N1CCOCC1
 : 2.3%	-6%	8	8%
- Cc1cc(=O)n2[nH]c(-c3ccccc3)cc2n1
 : 0.2%	-43%	4	5%
- Cc1cc(NS(=O)(=O)Cc2ccccc2)no1
 : 3.9%	-2%	-11	-10%
- CC1(C)Cc2ccccc2C(NNC(=O)c2ccccc2)=N1
 : 3.1%	-5%	-6	22%
- O=C(CSc1ncccc1C(=O)O)NCc1ccc(F)cc1
 : -1.1%	-2%	9	11%
- COC(=O)c1sc(NC(=O)CSc2nc3nc(C)cc(C)n3n2)c(C(=O)OC)c1C
 : u	x	x	-3%
- O=C(O)c1cc(O)ccc1NC(=O)c1cccc2ccccc12
 : 4.4%	-2%	-3	u
- Cc1ccc(NC(=O)c2ccc3nc(N4CCOCC4)sc3c2)c(Cl)c1
 : 0.8%	-30%	x	-5%
- Cc1cccc(NC(=S)NNC(=O)c2ccccc2Br)c1
 : 0.3%	-65%	6	3%
- Nc1cc2nc3ccccc3oc-2cc1=O
 : 1.0%	12%	-8	-15%
- CN(C)c1nc(N)c(C(=O)N=C(N)N)nc1Cl
 : -0.9%	x	-7	1%
- CC(C)N(Cc1nccn1C)C(=O)c1cc(COc2ccc(-n3cncn3)cc2)on1
 : 0.4%	x	x	8%
- Cc1cc(C)n2nc(C(=O)OCC(=O)N(CC(C)C)C3CCS(=O)(=O)C3)nc2n1 (stereo not given)
 : -3.7%	x	x	2%
- CCOc1ccc(CCNS(=O)(=O)c2cccc3nsnc23)cc1OCC
 : -0.8%	-11%	6	1%
- CCc1ccc(-c2cc(C)no2)cc1S(=O)(=O)NCc1ccccc1OC
 : -0.7%	1%	x	0%
- O=C(CCC1=NS(=O)(=O)c2ccccc2N1)NC1CCCCCCC1
 : -5.0%	-6%	-3	-5%
- CCOC(=O)N1CCN(Cc2nc(-c3cccs3)no2)CC1
 : 3.1%	-43%	0	-6%

Copied from above for reference:
Every second line gives: Rango complex inh	miR-21 reporter	GLA inh pH 4.5	Rango release inh
- COC(=O)c1sc(NC(=O)CSc2nc3nc(C)cc(C)n3n2)c(C(=O)OC)c1C
 : u	x	x	-3%
- O=C(O)c1cc(O)ccc1NC(=O)c1cccc2ccccc12
 : 4.4%	-2%	-3	u
- Cc1ccc(NC(=O)c2ccc3nc(N4CCOCC4)sc3c2)c(Cl)c1
 : 0.8%	-30%	x	-5%
- Cc1cccc(NC(=S)NNC(=O)c2ccccc2Br)c1
 : 0.3%	-65%	6	3%
